KSHV LANA nucl: LANA-nucleosome interaction inhibition | FITC-LANA1-23 / chicken nucleosome fluorescence polarization; hits give low values | AID 720717 | z-score (test concentration not listed) | actives 0.3% (n = 51,000);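 active = both repeat wells score below -2 in polarization z-score versus plate sample wells, excluding overly bright wells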;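 note: 100 nL library stock added to about 30 µL; numbers are from one replicate; some results filed as inactive read as strong as hits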
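System – purified chicken nucleosomes with FITC-labelled LANA N-terminal peptide (1-23) · Amount – 240 nM purified chicken nucleosomes (480 nM peptide binding sites), final · Also added – 50 nM FITC-LANA1-23 probe · Medium – TEN-BT buffer, pH 7.5 · Incubation – compound with peptide–nucleosome mix 10–45 min at room temperature · Detection – fluorescence polarization, ex 480 nm, em 535 nm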
BasE inh: blocks the Acinetobacter baumannii siderophore enzyme BasE. AID 485350. actives 0.1% (n = 84,000). inhibition, % (no concentration beside the values). purified BasE, fluorescence polarization binding displacement;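 active = both replicates above 25% with normal brightness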;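 note: 0% = negative plate control signal and 100% = positive plate control signal; stock transfer was 100 nL into about 30 µL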
Active calls of the source: *; x = no result given; & = joins results of further samples. The list is partial (hit frequency here may not be typical).

SMILES	KSHV LANA nucl	BasE inh
Cc1nn(-c2ccccc2)c(C)c1NC(=O)CN1CCCCC1C (stereo unspecified)	x	0.6
Cc1ccc(S(=O)(=O)NC2=NCN(CCCN3CCOCC3)CN2)cc1	0.043	1.1
CCOC(=O)N1CCCN=C1NNc1cc(F)ccc1F	-0.08	-1.4
CCCC1=NN(c2ccc(C(=O)OCC)cc2)C(=O)C1	0.97	-2.4
Cn1c(C/C(N)=N/O)nc2ccccc21	x	1.6
CN(C)c1ccc(/C=N/n2cnnc2)cc1	-0.63	0.7
CC(C)(C)NC(=O)CCc1ncc(C(F)(F)F)cc1Cl	-0.44	x
CC(=O)N[C@@H](CC(=O)O)C(=O)N[C@@H](CCC(=O)O)C(=O)O	-0.076	-1.1
O=c1ccc(C(F)(F)F)cn1Cc1cc(=O)n2ccsc2n1	x	2.0
Clc1ccc(/C=N/n2cnnc2)cc1	-0.45	3.8
Clc1ccc(Cn2c(CN3CCCC3)nc3ccccc32)cc1	0.8	-3.4
O=C(O)c1ccccc1-c1ccc(-c2cc(C(=O)O)c3cc(F)ccc3n2)o1	-0.16	0.9
c1ccc(Nc2nc(N3CCCCC3)nc(N3CCCCC3)n2)cc1	-1.3	-0.3
O=C(OC1CSc2nc3ccccc3n2C1)c1ccccc1Cl (stereo unspecified)	1.4	-0.2
CC(C)(C)/C=N/NS(=O)(=O)c1ccc(Cl)s1	-0.56	3.3

Ordered by value in KSHV LANA nucl (largest number first): some entries from above.
Molecule	KSHV LANA nucl
O=C(OC1CSc2nc3ccccc3n2C1)c1ccccc1Cl (stereo unspecified)	1.4
Clc1ccc(Cn2c(CN3CCCC3)nc3ccccc32)cc1	0.8
O=C(O)c1ccccc1-c1ccc(-c2cc(C(=O)O)c3cc(F)ccc3n2)o1	-0.16
CC(C)(C)NC(=O)CCc1ncc(C(F)(F)F)cc1Cl	-0.44
CN(C)c1ccc(/C=N/n2cnnc2)cc1	-0.63
c1ccc(Nc2nc(N3CCCCC3)nc(N3CCCCC3)n2)cc1	-1.3

New compounds follow:
SMILES	KSHV LANA nucl	BasE inh
COC(=O)c1sc(C)cc1OC(=O)c1ccc(OC)cc1	x	1.7
C/C=C/C(=O)Nc1ccc(OC)cc1	-0.1	0.8
Cc1ccc(-c2nc(C#N)c(N3CCC(C(N)=O)CC3)o2)cc1	x	-2.1
COC(=O)c1cc2c(ccn2-c2ccc(F)cc2)n1Cc1ccccc1	-1.4	0.2
CCC(=O)Nc1nnc(SCC(=O)N2CCCc3ccccc32)s1	0.12	-1.6
C=CCN(CC=C)S(=O)(=O)c1cc(Cl)ccc1Cl	0.93	-2.1
O=C(O)c1cc2c([nH]c1=O)CCC2	-0.67	3.3
C/C(N)=C(/C#N)C(=O)CN1C(=O)NC(C)(c2ccc3c(c2)OCO3)C1=O (stereo unspecified)	x	0.3
Cc1cccc(-c2nc3cc(NC(=O)c4cccc(F)c4)ccc3o2)c1	-0.89	1.6
N=c1oc2ccc3ccccc3c2cc1-c1nnc2n1CCCCC2	x	-0.6
Cc1cc2nc(NC3CCS(=O)(=O)C3)c3ccccc3n2n1 (stereo unspecified)	x	5.8
Cn1c(O)c(N=Nc2ccc(C(F)(F)F)cc2)c(=O)n(C)c1=O	0.87	-6.1
NC(=O)C1CCN(C(=O)Nc2cc3ccccc3s2)CC1	x	1.8
CCOC(=O)Cc1nn(Cc2nc(-c3ccccc3)cs2)c(=O)c2ccccc12	x	-1.4
c1cncc(N=c2scc(-c3cccs3)n2CCCn2ccnc2)c1	x	1.0
Cc1nc(NC(=O)c2ccc(F)cc2)nc2cc3c(cc12)OCO3	0.081	0.8
CCN(Cc1ccc(OC)c(F)c1)c1nc(C(F)(F)F)nc2ccccc12	x	1.2
O=C(CN(c1ccc2c(c1)OCCO2)S(=O)(=O)c1ccccc1)NC1CC1	0.95	-2.4
CC(C)C(=O)Nc1ccc(Br)cc1	0.18	-3.4
N#Cc1cc2c(cc1C#N)Oc1ccccc1O2	-0.52	1.0
O=C(N/N=C1\C/C(=N\NC(=O)c2ccncc2)c2ccccc21)c1ccncc1	x	7.0
Cc1ccnc(NC(=O)NCCCSc2nnnn2-c2ccccc2)n1	0.13	2.1
Fc1ccc(NC(=S)NC23CN4CN(CN(C4)C2)C3)cc1	0.41	0.2
CC(=O)NCC(=O)NC1CCC(C)CC1 (stereo unspecified)	x	-0.9
COC(=O)c1cc2oc3ccccc3c2n1CC(=O)Nc1ccc(C(C)C)cc1	-1.2	2.7
OC1CCN(Cc2cccc(C(F)(F)F)c2)CC1	0.036	-2.5
COc1ccc(OCCCC(=O)N2CCCC(C(N)=O)C2)cc1 (stereo unspecified)	x	0.0
O=C(NCCO)C1(c2ccc(Cl)cc2)CCCC1	x	-0.5
Cc1nn(-c2ccccc2)nc1CNC(=O)C1CC1	x	1.0
COCCNC(=O)c1ccccc1NS(=O)(=O)c1ccc(F)cc1	1.1	3.2
Cc1ccc(NC(=C(C#N)C#N)c2ccccc2)cc1	x	-5.1
CN(C)c1ccc(C(=O)OCC(=O)C(C)(C)C)cc1	x	0.6
Cc1cc(=O)n(-c2nc(-c3ccccc3)cs2)[nH]1	-0.59	4.2
Cc1cccc(-c2nc(NCCCN3CCOCC3)c3ccccc3n2)c1	x	-7.9
CCN(CC)S(=O)(=O)c1ccc(O)c(C(=O)O)c1	x	0.2
O=c1cc(-c2ccccc2)c2ccc3c(c2o1)CN(Cc1ccc2c(c1)OCO2)CO3	1	-1.8
COc1ccc(-c2noc(C3CCCN(C(=O)c4ccccc4)C3)n2)cc1 (stereo unspecified)	-1.4	-1.6
O=C1Nc2ccccc2C1=NC1CCN(Cc2ccccc2)CC1	1.9	x
COc1cc2[nH]c(=O)n(CCCCCC(=O)N3CCN(c4cccc(C)c4C)CC3)c(=O)c2cc1OC	-0.64	0.4
N#Cc1c(N2CCCC2)nc(N)c2c(N)nc(N3CCCC3)cc12	x	4.6
NS(=O)(=O)c1ccc(-c2ccc(/C=N/NC(=O)COc3ccc(F)cc3)o2)cc1	x	-2.9
CN(CC(=O)O)Cc1cccnc1	0.072	1.0
N#C/C(=C\c1c(Oc2ccccc2)nc2ccccn2c1=O)C(=O)NCc1ccco1	-0.63	1.7
C/C(N)=C/C(=O)N1CCCCC1	-1.3	-1.1
COc1cccc(-c2nc(COC(=O)C3=COCCO3)cs2)c1OC	x	-3.2
Nn1c(SCc2cn3ccccc3n2)nnc1C1CC1	x	2.3
CCOc1ccc(NC(=O)CCCn2c(=O)[nH]c3ccccc3c2=O)cc1	-1.6	-0.5
CCCCn1c2c(c(=O)[nH]c1=O)C(c1ccc(OC(F)F)cc1)C1=C(CCCC1=O)N2 (stereo unspecified)	x	-4.5
CCNC(=O)C(C#N)=C1CCCCCC1	-0.51	4.2
COC(=O)c1sccc1N/C=C(\C#N)S(=O)(=O)C(C)(C)C	x	-1.2
CC1CCCCC1NC(=O)NC(=O)CSc1nnnn1-c1ccc(Cl)cc1 (stereo unspecified)	x	1.0
C#CCn1cc(/C=C(/C#N)C(=O)Nc2ccccc2)c2ccccc21	-1.6	-1.8
COC(=O)/C(C#N)=C/c1ccc(C)s1	1.5	-1.3
CC(C)SC1=NSC2=NC(=O)/C(=C\c3ccc(-c4cccc(C(=O)O)c4)o3)C(=N)N21	0.27	4.3
O=C(CNc1ccc(F)cc1F)Nc1ccc2c(c1)OC(F)(F)O2	x	-0.1
CCOC(=O)/C(C#N)=C/Nc1nc2ccccc2nc1N1CCOCC1	x	-0.8
Cc1ccc(CNC(=O)C2CCC(=O)N2C2CCCCC2)cc1 (stereo unspecified)	0.95	-2.7
CCc1ccc(NC(=O)N(Cc2ccc3c(c2)OCO3)C2CCN(CC)CC2)cc1	0.24	-1.6
O/N=C(/C(=N/O)c1ccco1)c1ccco1	0.22	0.3
COC(=O)CN1C(=O)/C(=C/c2ccc(OCc3ccccc3)c(OC)c2)SC1=S	x	3.3

Brought forward from above: 5 entries, followed by the next part.
SMILES	KSHV LANA nucl	BasE inh
CCOC(=O)/C(C#N)=C/Nc1nc2ccccc2nc1N1CCOCC1	x	-0.8
Cc1ccc(CNC(=O)C2CCC(=O)N2C2CCCCC2)cc1 (stereo unspecified)	0.95	-2.7
CCc1ccc(NC(=O)N(Cc2ccc3c(c2)OCO3)C2CCN(CC)CC2)cc1	0.24	-1.6
O/N=C(/C(=N/O)c1ccco1)c1ccco1	0.22	0.3
COC(=O)CN1C(=O)/C(=C/c2ccc(OCc3ccccc3)c(OC)c2)SC1=S	x	3.3
O=c1c2ccccc2ncn1CCOc1ccc(Br)cc1	x	0.6
COc1ccc(Nc2nnc(SCC(=O)c3cc(C)n(-c4nccs4)c3C)s2)cc1	x	1.5
CC(=O)NS(=O)(=O)c1ccc(-c2ccc(/C=C3/C(=O)N(CCCO)C(=O)C(C#N)=C3C)o2)cc1	x	0.0
CN(C)c1cncc(C(=O)O)c1	-0.25	0.4
CN=c1scc(C)n1NC(=O)Nc1ccc(Cl)cc1	x	-0.5
Cc1ccc(NC(=O)CC2NC3CCCCC3NC2=O)cc1C (stereo unspecified)	-0.95	0.7
O=c1[nH]ccc2c1c(=O)[nH]c1ccccc12	1.4	0.1
O=c1cc[nH]c2c1ccc1c(O)ccnc12	0.32	3.8
NC(=O)CCc1nc(-c2ccccc2)no1	-0.85	3.0
O=C(C1CC(c2ccccc2F)=NO1)N1CCCCCC1 (stereo unspecified)	-1.8	-0.6
N#CC(C#N)=C(N)COc1cccc(Cl)c1	-1.1	x
CC(C)=C1C(=O)N(c2ccccc2)C(=S)N1c1ccccc1	-1.3	1.2
CCCSc1nnc2c(n1)OC(C)(C)Nc1ccccc1-2	2.4	1.0
COc1ccc(C(=O)N2CCn3c2nc2ccccc23)cc1OC	-0.4	-1.8
Fc1ccc(Oc2nc(Oc3ccc(F)cc3)nc(N3CCSCC3)n2)cc1	0.39	-0.3
CCOC(=O)c1nccn1CC(=O)N(CC)c1cccc(C)c1	0.15	2.0
O/N=C1/CCN(Cc2ccccc2)C1	1.7	-0.8
Cc1cccc(NCc2ccc(N(C)C)cc2)n1	0.15	0.8
COC(=O)c1ccccc1N=Nc1c(N)[nH][nH]c1=O	0.11	6.3
CCN(CC)C(=O)CSc1nc(-c2ccccc2)cn1N	x	1.1
O=c1[nH][nH]c2ccccc2c1=O	-1.3	4.4
O=c1cc(CSc2nnc(N3CCOCC3)n2-c2cccc(F)c2)nc2sc3c(n12)CCCC3	x	1.2
CN(C)c1ccc(NC(=O)CSc2nc3ccccc3c(=O)n2CC2COc3ccccc3O2)cc1 (stereo unspecified)	1.4	-1.4
COC(=O)c1cc(-c2ccccc2)sc1N	-1.6	1.2
CCOC(=O)Cc1csc(SCC(=O)Nc2cccc(C#N)c2)n1	x	1.1
O=c1n(Cc2cccc(C(F)(F)F)c2)nnn1-c1ccccc1	x	1.5
Cc1cccc2cc(CN(C(=O)C(F)(F)F)C3CCCC3)c3nnnn3c12	-1.5	0.1
CCC1CN(Cc2ccccc2)CCC1=O (stereo unspecified)	-0.06	1.2
COC(=O)C1=C(C)NC(C)=C(C(=O)OC)C1c1cc2ccc(OC)cc2[nH]c1=O	0.54	0.0
Cc1cccn2c(=O)c3cc(C(=O)NC(C)c4ccccc4)c(=N)n(CC4CCCO4)c3nc12 (stereo unspecified)	x	3.8
COCCN(C(=O)C1CC1)c1nnc(-c2cccc(C)c2)s1	0.56	0.3
O=C(COc1ccccc1Br)N1CCCCC1	x	2.5
CCOc1ccccc1C(=O)Nc1ccc(-c2ccc3nncn3n2)cc1	0.88	-0.8
COC(=O)c1c(C)oc(C)c1S(=O)(=O)Nc1ccc(C(C)C)cc1	x	-0.4
COc1cccc(/C=N/n2c(N)nc3ccccc32)c1OC	-0.59	0.3
CC(C)NCC(O)COc1ccc(COCCOC(C)C)cc1 (stereo unspecified)	-0.26&0.05&1.2	-4.7
Cc1cc(SCCOc2ccccc2)nc(N)n1	-1.2	-0.6
N/C(=N\OC(=O)Nc1ccccc1)c1ccc2nonc2c1	-0.4	6.0
O=C(N/N=C/c1ccccc1O)C12CC3CC(CC(C3)C1)C2	x	3.3
CCc1ccc(NC(=S)N(Cc2cccnc2)Cc2ccco2)cc1	0.41	-2.6
CCc1cc2c3c(c(=O)oc2cc1OCC(=O)OC(C)(C)C)CCCC3	x	1.3
N=C1C(c2nc3ccccc3[nH]2)=C(O)CN1C1CCCC1	0.47	2.5
O=C1c2ccccc2C(=O)N1CCCn1c(=O)oc2ccccc21	x	2.9
N#Cc1ccccc1N=Cc1ccccc1O	0.006	-0.5
O=C1CCCC2=C1C(c1ccncc1)n1c(nc3ccccc31)N2 (stereo unspecified)	2.3	-4.3

Record cards (already shown). Order of screens: KSHV LANA nucl | BasE inh
Fc1ccc(NC(=S)NC23CN4CN(CN(C4)C2)C3)cc1 reads 0.41 | 0.2
COC(=O)c1cc2c(ccn2-c2ccc(F)cc2)n1Cc1ccccc1 reads -1.4 | 0.2
N#Cc1c(N2CCCC2)nc(N)c2c(N)nc(N3CCCC3)cc12 reads x | 4.6
N#Cc1cc2c(cc1C#N)Oc1ccccc1O2 reads -0.52 | 1.0
C/C(N)=C/C(=O)N1CCCCC1 reads -1.3 | -1.1

More records:
SMILES	KSHV LANA nucl	BasE inh
Cc1ccc(N2C(=O)C(Cc3ccccc3)N=C2N(CCN(C)C)Cc2ccco2)c(C)c1 (stereo unspecified)	0.031	-1.1
CCN(CC)CC(=O)NC1(C)CCCCC1c1ccc(O)cc1 (stereo unspecified)	-0.69	0.3
CCCC(C(=O)Nc1ccccc1F)N1Cc2ccccc2C1=O (stereo unspecified)	-0.15	3.9
O=C(NCc1cccnc1)c1csc2ccccc12	0.55	-3.8
CC1Oc2ccccc2N(CC(=O)NCc2ccccc2)C1=O (stereo unspecified)	-0.025	-1.6
COc1cc2c(cc1OC)C(C(=O)Nc1ccc(F)c(Cl)c1)CC(=O)N2 (stereo unspecified)	-0.91	1.3

Source: PubChem BioAssay (ICCB-Longwood Screening Facility, Harvard Medical School)
